S aureus helic: inhibitors of S. aureus replicative helicase, primary screen, biochemical, fluorescence unwinding readout | purified S. aureus helicase, fluorescence unwinding assay; about half of the hits fall short of the stated cut | inhibition, %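 (tested at about 80 µM)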 | 0.05% of 120,000 active | AID 485395, 2010;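 active = both duplicates at 50% or more, or one of them with a favoured structure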;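 also: 0% = mean of negative control wells and 100% = mean of positive control wells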
MgrA-DNA mod: S. aureus MgrA activity modulators, primary screen, biochemical, S. aureus Newman, fluorescence polarization; MgrA-DNA binding; inhibition, %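 (about 10 µg/mL by stock and volumes)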; 0.13% of 84,000 active; AID 602314, 2012;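 active = above 50% in either of two replicates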;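 also: 0% = protein plus DNA without compound and 100% = DNA alone without protein; higher means less MgrA bound to DNA so lower polarization; one replicate is shown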
Numbers without * were called inactive; / = no result given. Some of the compounds tested; count on the stated rates, not on these rows.

S aureus helic	MgrA-DNA mod	SMILES
9	/	O=C(CNC(=O)C1CCCCC1)NC1=NCCS1
3	/	NS(=O)(=O)c1ccc(NNC(=O)CCc2ccccc2)cc1
19	/	O=C(CSc1nnc(NC2CC2)s1)N1CCCCC1
10	/	Cc1cc2nnc(SCC(=O)N(C)C)n2c2ccccc12
5	5.1	CCCCCC1=C(O)c2ccccc2C(=O)C1=O
9	/	CCCCn1c(N)c(N(CCC(C)C)C(=O)c2ccccc2F)c(=O)[nH]c1=O
20	/	CN(Cc1ccco1)C(=O)c1ccc(N2CCCC2=O)cc1
2	/	O=C(OCc1nc2ccccc2[nH]1)C1CCCCC1
/	-3.0	COc1ccc(OC)c(S(=O)(=O)Nc2cccc(Br)c2)c1
21	-1.1	CCOC(=O)c1c(-c2ccccc2)oc2ccc(OCC(=O)NN)cc12
-14	2.3	CNC(=O)CCC(=O)Nc1ccc(C)cc1
13	0.9	C(=Nn1cncn1)c1ccc(N2CCOCC2)cc1
/	1.9	Nc1ncnc(Nc2ccccc2F)n1
4	/	O=c1nc2c(-c3cccc(Cl)c3)n[nH]n2c2ccccc12
3	/	CCCSC1=C(C#N)C(c2cc(OC)ccc2OC)CC(=O)N1 (stereo unspecified)
-8	/	O=c1cc(-c2ccccc2)nc(-c2ccccc2)o1
/	2.7	COc1cc(C(F)(F)F)cc(C(F)(F)F)c1C(=O)Nc1cc(C(F)(F)F)cc(C(F)(F)F)c1
13	/	CCCSC1=C(N(C)C)C(=O)c2ccccc2C1=O
-13	/	Cc1ccc(NCCNc2ccc(C)cc2C)c(C)c1
-6	/	CC1CC(C)CN(C(=O)c2cc(N(C)S(=O)(=O)c3ccccc3)ccn2)C1 (stereo unspecified)
/	3.0	COc1cc(C=C2C(=O)NC(=O)NC2=O)ccc1OCCOc1ccc([N+](=O)[O-])cc1
/	-0.2	Cc1ccc(N=C2NC(=O)C(CC(=O)Nc3ccc(OC(F)(F)F)cc3)S2)cc1 (stereo unspecified)
-16	/	O=C(Nc1ccccc1)C1Cc2ccccc2CN1C(=O)c1ccco1 (stereo unspecified)
4	-0.5	N#Cc1cc[n+](CC(=O)c2cccs2)cc1
24	/	C=C(C)C1CCC(C)OC1c1ccccc1 (stereo unspecified)
9	/	COc1ccccc1N1CCN(C(=O)C(C)N2C(=O)c3ccccc3C2=O)CC1 (stereo unspecified)
/	1.7	NS(=O)(=O)c1ccc(NS(=O)(=O)c2cccc(C(F)(F)F)c2)cc1
-12	/	O=C(/C=C/c1ccccc1)Nc1nc(-c2ccc3c(c2)OCCO3)cs1
7	/	Cc1ccc(C)n1-c1ccc(C(=O)NCC(=O)O)cc1
/	-3.0	Cc1ccc(NS(C)(=O)=O)cc1N=Cc1ccc(N(C)C)cc1
-1	/	Cc1ccc(C(=O)n2ncn(C)c2=S)cc1
5	0.0	CC(C)(C)c1ccc(O)c(N)c1
-15	/	Cc1ccc(C2C(S(C)(=O)=O)=C(O)C(=O)N2c2ccccc2)cc1 (stereo unspecified)
3	-0.1	CCC/C(O)=C1\C(=O)CC(C)(C)CC1=NCCc1ccc(OCC)c(OCC)c1
10	/	CCN1C(=O)C2Cc3cc(OC)c(OC)cc3CN2C1=S (stereo unspecified)
/	-0.1	CCC(C(=O)Nc1ccc(C(F)(F)F)cc1)c1ccccc1 (stereo unspecified)
/	2.0	CN(C(=O)c1cccs1)C1CC2C=CC1C2 (stereo unspecified)
-15	/	O=S(=O)(c1ccccc1)N1CCN(S(=O)(=O)c2ccccc2)CC1
8	/	CCOC1(O)C(=O)c2ccccc2C(=O)C1(O)OCC (stereo unspecified)
/	-0.3	CC(=O)OC[C@H]1OC[C@H](OC(C)=O)[C@@H](OC(C)=O)[C@H]1OC(C)=O
-5	-2.3	CN(C(=O)c1ccccc1C(=O)O)C1CC(C)(C)NC(C)(C)C1
/	-2.5	COc1ccc(S(=O)(=O)Nc2ccnn2C)cc1
3	-1.4	CC(C)(C)c1ccc(S(=O)(=O)CCSc2nc3ccccc3s2)cc1
4	2.2	O=C(CCn1c(=O)c2cccn2c2cccnc21)NCc1ccccc1
14	/	CC1(C)CC(=O)C2=C(C1)Nc1[nH]n(-c3ccccc3)c(=O)c1C2c1cccs1 (stereo unspecified)
-5	/	CC(Oc1ccc(-c2nnco2)cc1)C(=O)NC1(C#N)CCCCC1 (stereo unspecified)
-4	/	Cn1c(=O)c(=O)n(C)c2ncccc21
-9	/	NC(=O)c1oc2ccccc2c1NC(=O)C(c1ccccc1)c1ccccc1
-5	/	COc1ccc(F)cc1C(=O)CSc1nc2c3ccccc3ncn2n1
7	/	CCOc1ccc(NC(=O)NC2CCN(c3ncccn3)CC2)cc1

Additional compounds:
S aureus helic	MgrA-DNA mod	SMILES
-5	/	CN(C)/C=N/c1sc2c(c1C#N)CC(C)(C)NC2(C)C
/	-2.1	O=C(Nc1ncc(Cc2cccc(C(F)(F)F)c2)s1)c1sc2ccccc2c1Cl
-37	11	N#CC1(C#N)C(c2cccnc2)C(C(=O)c2ccccc2)N2c3ccccc3C=CC21 (stereo unspecified)
-17	/	CC(C)COc1cccc(OCC(=O)O)c1
/	-0.8	Cc1nn(C)c(Sc2ccc(Cl)cc2)c1C(N)=O
-16	/	OC(Cn1nnc2ccccc21)c1ccccc1 (stereo unspecified)
6	/	COC(=O)C1CCN(C(c2ccc(F)cc2)c2ccc(F)cc2)CC1
/	-2.8	FC(F)(F)c1ccc(C2=NCCO2)cc1
3	-1.2	Cc1cccc(-n2cc(-c3cc4cc(Cl)ccc4oc3=O)[nH]c2=S)c1
2	5.4	Cc1cccc(N=Cc2c(Nc3cccc(C)c3)nc3ccccn3c2=O)c1
/	-2.6	COc1ccc(OC)c(C2C(C(=O)OCCOc3ccccc3)=C(C)NC3=C2C(=O)CC(C)(C)C3)c1 (stereo unspecified)
/	-1.7	C=CCn1c(SCc2ccc(C(=O)NCCO)cc2)nc2sc(C)c(C)c2c1=O
17	3.7	N#Cc1ccc(-n2nnc3ccccc32)cc1C#N
15	0.0	CCNC(=S)N1C2CCCC1CC(NC(=O)C1CC1)C2 (stereo unspecified)
-4	/	CCOC(=O)c1ccccc1NC(=O)Cn1ncc2c1-c1cc(C)ccc1OC2
-9	/	Cc1ccc(Nc2nc(N)nc(CSc3ccc(F)c(Cl)c3)n2)cc1
-11	1.6	Cc1ccccc1OCC1CN(CN2CCC(C)CC2)C(=O)O1 (stereo unspecified)
/	2.7	COc1cc2ncnc(N3CCN(C)CC3)c2cc1OC
-14	-1.8	CCSc1nc2ccccc2n1CC(=O)NCc1ccc(OC)cc1
-5	0.9	CC(C)(C)c1cc(N)n(-c2ccc(Br)cc2)n1
/	-0.2	c1cc2c(cc1N=C1SCC3CCCCN13)OCO2 (stereo unspecified)
16	/	O=C(CN1C(=O)CSCC1=O)Nc1ccc(Cl)cc1
1	-2.0	Cc1nnc(SC(C)C(=O)NC2CCCCC2)[nH]c1=O (stereo unspecified)
/	-1.3	COCCN(CCOC)S(=O)(=O)c1ccc(C(=O)Nc2nc3ccc([N+](=O)[O-])cc3s2)cc1
4	-1.5	CCC1CCC(NCC(C)(C)CN(C)C)CC1 (stereo unspecified)

Some of the entries above in another layout:
Below each SMILES: S aureus helic	MgrA-DNA mod
> N#CC1(C#N)C(c2cccnc2)C(C(=O)c2ccccc2)N2c3ccccc3C=CC21 (stereo unspecified)
  -37	11
> CC(C)COc1cccc(OCC(=O)O)c1
  -17	/
> Cc1nn(C)c(Sc2ccc(Cl)cc2)c1C(N)=O
  /	-0.8

The results go on:
S aureus helic	MgrA-DNA mod	SMILES
/	0.0	O=C(CSc1nnc(NC(=O)c2ccc(Cl)c(Cl)c2)s1)Nc1ccc(F)c(F)c1F
-9	/	O=C(CCC(=O)c1ccc(Cl)s1)OCc1nc2ccccc2s1
-8	-1.6	CC1CCN(C(=O)COC(=O)c2ccc3ccccc3n2)CC1
-34	/	CCc1cc2c(=S)[nH]cnc2s1
-14	/	NC(=O)CSc1nnc(-c2cccs2)n1-c1ccc(Cl)cc1
/	0.1	COc1cc2c(=O)oc(-c3cccs3)nc2c(OC)c1OC
-4	1.3	O=CN(Cc1ccco1)C1(C(=O)NC2CCCCC2)CCCCC1
-1	/	CCN(CC)S(=O)(=O)c1ccc(Cl)c(C(=O)N2CCN(c3ncccn3)CC2)c1
/	-2.0	CC(C)(C)NC(=O)N1CCOCC1
-11	/	O=C(CSc1nc(-c2ccccc2)c(-c2ccccc2)o1)NCCN1C(=O)CSC1=O
6	-2.0	Cc1ccc(Cn2c(C)c(CNC(C)CCc3ccccc3)c(C(=O)O)c2C)cc1 (stereo unspecified)
15	0.4	O=C1CC(c2ccco2)Cc2nc(NC3CC3)ncc21 (stereo unspecified)
6	/	O=C(O)c1cc(-c2ccccc2)n[nH]1
-3	/	COC(=O)c1ccn(-c2nc(-c3ccco3)cc(C(F)(F)F)n2)n1
/	1.8	CC(=O)Nc1nc2ccccc2n1CCCN(C)C
16	/	CCOC(=O)CSc1ccc2nnc(CCNS(=O)(=O)c3ccc(C)cc3)n2n1
-6	/	Cn1c(SCC(=O)NCCN2C(=O)CSC2=S)nnc1C(F)(F)F
-23	-0.6	FC(F)(F)Cc1nc2ccccc2s1
10	-2.9	O=C(Nc1cccc2ccccc12)OC1C=CS(=O)(=O)C1 (stereo unspecified)
1	-4.5	CCCOC(=O)C[n+]1cn(CC)c2ccccc21
9	/	CCOC(=O)c1oc2ccc(Br)cc2c1CSc1nnc2ccccn12
-8	/	CC1CC(C)CN(C(=O)c2cc3c(s2)CCC3)C1 (stereo unspecified)
-17	-5.2	Oc1ccc(-c2cn3ccsc3n2)cc1
3	-2.4	S=C(NCCc1ccccc1)NC1CC1
1	-0.5	O=C(NCCc1ccccc1)C1CCCN(c2nnc(-n3cccc3)s2)C1 (stereo unspecified)
-1	/	O=C(Nc1nnc(SCc2ccccc2)s1)c1cccs1
12	3.5	COC(=O)/C=C/S(=O)(=O)c1ccc(NC(C)=O)cc1
-2	/	CC(C)Cn1c(-c2ccco2)csc1=Nc1cccnc1
11	-5.7	CCOC(=O)c1cc(CC)sc1NC(=O)CC1Nc2ccccc2NC1=O (stereo unspecified)
18	/	CCOC(=O)C1=C(CSc2n[nH]c(COc3ccc(C)cc3)n2)NC(=O)NC1C (stereo unspecified)
-19	0.1	COc1cc(C(=O)Nc2ccccc2C(=O)N2CCCCC2)cc(OC)c1OC
-1	/	CC(C)CCNC(=O)c1cc(=O)c2ccccc2o1
-6	/	Cn1ccnc1-c1nc2ccccc2n(CC(=O)OCc2ccc(C#N)cc2)c1=O
9	/	O=c1cc[nH]cc1-c1ccc(Cl)cc1
-26	/	CN(C)/C=C1\C(=O)N(c2ccc(F)cc2F)C(c2cccnc2)S1(=O)=O (stereo unspecified)
/	0.1	Fc1ccc(N=Cc2c(F)cccc2Cl)cc1Cl
/	1.0	CCOC(=O)c1ccc(N2C(=O)NC(=O)/C(=C/c3ccc(OC)cc3OC)C2=O)cc1
7	-6.8	N#Cc1ccc(NC(=O)C2CCC(C(=O)Nc3ccc(C#N)cc3)CC2)cc1 (stereo unspecified)
11	/	CCc1nn(CC(=O)NCCc2ccc(S(N)(=O)=O)cc2)c(=O)c2cc3sccc3n12
-4	-1.9	CCC1CSC(Nc2ccccc2)=N1 (stereo unspecified)
2	-2.2	O=C(Cc1ccc(Cl)cc1)NCCCn1ccnc1
/	2.6	C=C(C)c1ccccc(=O)c1O
-14	/	Cc1nc2sc(C(c3cccs3)N3CCC(C)CC3)c(O)n2n1 (stereo unspecified)
5	/	COc1cccc2c1Oc1ncccc1N(c1ccc(C(=O)N3CCCC3)s1)C2
/	-4.2	CC1CN(C(=N)N)CC(C)O1 (stereo unspecified)
/	-2.5	CC(C)(C)C(=O)Nc1ccncc1
-4	-2.7	Cc1nc(Nc2ccc(S(N)(=O)=O)cc2)oc1C
23	/	COCCNC(=O)Cn1nc(C)c(NC(=O)c2cc(-c3ccc(F)cc3)no2)c1C
13	-1.1	O=C(CSc1ncccc1C(=O)O)NC1CCCCC1
2	/	CNCc1ccccc1F
-11	2.4	Cc1ccc2c(c1)-c1onc(C(=O)NCCN3CCc4ccccc4C3)c1CO2

Of the compounds above, 15 have an aryl methoxy group.
S aureus helic	MgrA-DNA mod	SMILES
/	-3.0	COc1ccc(OC)c(S(=O)(=O)Nc2cccc(Br)c2)c1
3	/	CCCSC1=C(C#N)C(c2cc(OC)ccc2OC)CC(=O)N1 (stereo unspecified)
/	2.7	COc1cc(C(F)(F)F)cc(C(F)(F)F)c1C(=O)Nc1cc(C(F)(F)F)cc(C(F)(F)F)c1
/	3.0	COc1cc(C=C2C(=O)NC(=O)NC2=O)ccc1OCCOc1ccc([N+](=O)[O-])cc1
9	/	COc1ccccc1N1CCN(C(=O)C(C)N2C(=O)c3ccccc3C2=O)CC1 (stereo unspecified)
10	/	CCN1C(=O)C2Cc3cc(OC)c(OC)cc3CN2C1=S (stereo unspecified)
/	-2.5	COc1ccc(S(=O)(=O)Nc2ccnn2C)cc1
-5	/	COc1ccc(F)cc1C(=O)CSc1nc2c3ccccc3ncn2n1
/	-2.6	COc1ccc(OC)c(C2C(C(=O)OCCOc3ccccc3)=C(C)NC3=C2C(=O)CC(C)(C)C3)c1 (stereo unspecified)
/	2.7	COc1cc2ncnc(N3CCN(C)CC3)c2cc1OC
-14	-1.8	CCSc1nc2ccccc2n1CC(=O)NCc1ccc(OC)cc1
/	0.1	COc1cc2c(=O)oc(-c3cccs3)nc2c(OC)c1OC
-19	0.1	COc1cc(C(=O)Nc2ccccc2C(=O)N2CCCCC2)cc(OC)c1OC
/	1.0	CCOC(=O)c1ccc(N2C(=O)NC(=O)/C(=C/c3ccc(OC)cc3OC)C2=O)cc1
5	/	COc1cccc2c1Oc1ncccc1N(c1ccc(C(=O)N3CCCC3)s1)C2

Source: PubChem BioAssay (ICCB-Longwood Screening Facility, Harvard Medical School)
